Assay outcomes deposited in PubChem by several laboratories.
MT1-MMP act inh: blockers of MT1-MMP proenzyme processing, primary screen, HT1080 RFP-PRO-GFP cells, GFP/RFP fluorescence | AID 651647, 2012 | GFP/RFP ratio change, % at 20 µM | 360,000 compounds, 0.061% hits | GFP/RFP ratio fluorescence, overnight; percent of plate control window, DMSO zero;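 active means GFP/RFP ratio change of at least 30% with cell ATP level not reduced by more than half and red fluorescence within 50% of control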; further: strong numbers were not always called active
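Assay system: HT1080 RFP-PRO-GFP cells. Benchmarks: DMSO vehicle wells and RFP-L50D-GFP reporter cell wells. Times: overnight cell settling, then overnight compound exposure, 37 °C, 5% CO2. Compound: 20 µM single dose, 1% DMSO. Read-out basis: GFP/RFP fluorescence ratio.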
PABP polyA inh: PABP poly(A) RNA binding inhibitors, primary screen, biochemical, fluorescence polarization, uHTS | 290,000 compounds, 1% hits | inhibition, % at 35 µM;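 active means 50% or more with normal probe brightness, or confirmed in later tests; inconclusive means above 50% with abnormal brightness, or retests that disagree; inactive means below 50% or failed in later tests; about a fifth of its hits are not listed in these tables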;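 further: calls also rest on retests at 20 µM and on dose response follow-up; controls were probe without protein and protein plus probe with vehicle; some compounds called inactive have numbers as strong as hits; many hits fall short of the cut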
Target sequence (P11940 whole entry, looked up): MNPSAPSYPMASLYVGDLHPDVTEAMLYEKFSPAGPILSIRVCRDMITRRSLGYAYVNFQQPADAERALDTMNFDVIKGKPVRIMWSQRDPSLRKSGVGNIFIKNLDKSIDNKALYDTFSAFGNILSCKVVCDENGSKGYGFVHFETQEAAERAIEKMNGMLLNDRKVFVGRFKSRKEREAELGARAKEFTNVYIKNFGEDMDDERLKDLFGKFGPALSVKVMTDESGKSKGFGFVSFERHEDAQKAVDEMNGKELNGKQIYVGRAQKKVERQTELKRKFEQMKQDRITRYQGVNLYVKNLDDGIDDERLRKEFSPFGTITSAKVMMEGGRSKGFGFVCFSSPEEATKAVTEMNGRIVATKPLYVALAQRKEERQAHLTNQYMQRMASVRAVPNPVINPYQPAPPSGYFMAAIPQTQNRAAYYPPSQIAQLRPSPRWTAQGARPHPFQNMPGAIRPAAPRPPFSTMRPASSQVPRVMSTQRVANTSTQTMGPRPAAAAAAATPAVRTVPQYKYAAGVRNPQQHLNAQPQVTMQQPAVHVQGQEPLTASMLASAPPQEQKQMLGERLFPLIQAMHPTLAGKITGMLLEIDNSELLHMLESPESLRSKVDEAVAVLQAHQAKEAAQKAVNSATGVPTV
Yeast UUG start: modulators of yeast start codon fidelity, primary screen, whole organism, S. cerevisiae, single point, plate reader. S. cerevisiae UUG-firefly luciferase reporter, luminescence/redox ratio. activity score, % at 18.7 µM. 350,000 compounds, 0.13% hits. AID 602363, 2012;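 active means replicate mean at a twofold rise or more, about +100% in these data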;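 further: firefly luciferase made from a UUG start codon reports start codon fidelity; reporter light over untreated wells divided by growth signal over untreated wells; some hits fall short of that in this replicate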
CSC inhib: cancer stem cell viability inhibitors, primary screen, luminescence; cancer stem cell-like cells viability; inhibition, % at 7.5 µM; 300,000 compounds, 1.1% hits; AID 2717, 2010;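 active means mean at 75% or more and at least half the replicates too; inconclusive means mean and replicates disagree; tested in HMLE shEcad cells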;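 further: 0% = median of negative and 100% = median of positive control wells; the first replicate is given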
eIF4H inh: human eIF4H binding inhibitors, primary screen, translation initiation inhibitor project, biochemical, uHTS, fluorescence polarization | Eukaryotic translation initiation factor 4H (Homo sapiens), Q15056 | eIF4H fluorescence polarization binding assay | 290,000 compounds, 0.94% hits | inhibition, % at 35 µM;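 active means 50% or more with normal probe brightness, or confirmed in later tests; inconclusive means above 50% with abnormal brightness, or retests that disagree; inactive means below 50% or failed in later tests; about a fifth of its hits are not listed in these tables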;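 further: calls also rest on retests at 20 µM and on dose response follow-up; 0% = protein and probe with vehicle and 100% = probe without protein; strong numbers were not always called active; many hits fall short of the cut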
HIV Env fusion: inhibitors of HIV-1 Env-driven cell-cell fusion, primary screen, HeLa-JRFL effector, CEM21 target cells, luciferase; inhibition, % at 12.3 µM; 360,000 compounds, 1.1% hits; AID 651610, 2012;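 active means mean replicate inhibition score of at least 50 and every replicate individually at or above 50; inconclusive means only one of the two criteria met; inactive means mean below 50 and not all replicates reaching 50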;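 further: 0% = plate neutral controls and 100% = maraviroc near 300 nM; one replicate is shown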
Rce1 inhib: yeast Rce1p protease inhibitors, primary screen, biochemical, fluorescence, cell-free homogeneous. CAAX prenyl protease 2 (Saccharomyces cerevisiae (strain ATCC 204508 / S288c)), Q03530. 290,000 compounds, 0.27% hits. yeast membranes, quenched prenylated peptide cleavage fluorescence. AID 2563, 2010. calls only;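 active means fall in fluorescence gain of 50% or more versus controls, with final raw signal at or below 3038400; inconclusive means same 50% fall but final raw signal above 3038400; inactive means fall in fluorescence gain under 50%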;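 further: plate controls were neutral control wells for no effect and wells lacking membranes for full effect; tested at 10 µM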
MT1-MMP act inh RFP: recorded beside MT1-MMP act inh, whose call it bears; RFP signal change, %; measured here: RFP expression control read;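 0 = vehicle wells; hits needed this value within 50% of zero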
* marks the source's active call; other numbers are inactive results; i = inactive; ? = inconclusive; . = no result given; + = active, no number. The list is partial; count on the stated rates, not on these rows.

No.	compound	MT1-MMP act inh	MT1-MMP act inh RFP	PABP polyA inh	Yeast UUG start	CSC inhib	eIF4H inh	HIV Env fusion	Rce1 inhib
1	Cc1cc(NC(=O)CON=C(N)CC(=O)Nc2ccccc2Cl)ccc1Br	-3	2	.	-2	.	.	6	.
2	CCOc1ccc2nc(Cl)c(C3CC(c4ccccc4)=NN3C(=O)c3cccs3)cc2c1 (centres undefined)	-2	3	2	.	16	-1	15	i
3	CC(C)(C)OC(=O)N(CC1CCNCC1)C(=O)c1[nH]c(C(F)(F)F)nc1-c1ccccc1	1	3	.	7	.	.	9	.
4	COc1ccc(N(CC(=O)Nc2cc(C)on2)S(=O)(=O)c2cc(C)ccc2C)cc1	7	-5	6	2	.	-1	-20	i
5	c1ccc(CNc2c3c(nc4ncnn24)CCCC3)nc1	-2	1	-1	-3	-16	-1	3	i
6	O=C(Cn1cnc2c(NCc3ccccc3)ncnc21)NCCc1cc2ccccc2[nH]1	5	-1	.	-10	.	.	-19	.
7	CO/N=C/C=C1/N(C)c2ccccc2C1(C)C	0	1	7	-22	-2	-3	-2	i
8	Cc1ccc(S(=O)(=O)Nc2c(C)n(C)n(-c3ccccc3)c2=O)cc1C(=O)NCc1ccccc1	0	5	.	-6	.	.	5	.
9	COc1ccc(S(=O)(=O)N(C)c2ccc(C(=O)NC3CCCC3)cc2)cc1	3	-5	1	-8	10	-10	2	i
10	CC(C)=CCc1c(O)c(CC=C(C)C)c2c(c1O)C(=O)CC(c1ccc(O)cc1)O2 (centres undefined)	5	-7	6	-5	-10	9	.	i
11	C=CCN1CCN(C(c2ccccc2OC)c2nnnn2C(C)(C)C)CC1 (centres undefined)	-2	3	14	.	-2	3	-1	i
12	Cn1c(SCc2ccccc2)nc(C(F)(F)F)cc1=O	-2	-1	-16	.	8	-4	-10	i
13	COc1ccc(C(=O)C[n+]2ccc3c(c2)nc(-c2ccc(OC)cc2OC)n3C)cc1	-4	-23	-1	-1	-36	-1	.	i
14	CCC(C)C(=O)Nc1ccc([N+](=O)[O-])cc1OC (centres undefined)	9	-3	-2	5	18	-7	-14	i
15	CCOC(=O)c1c(-c2ccccc2)oc2ccc(OCC)cc12	-3	1	1	-8	11	3	-12	i
16	O=C(CSc1ccc(Cl)cc1)Nc1ccccc1N1CCN(C(=O)c2ccc(Cl)cc2)CC1	-1	-3	-1	.	.	-6	-39	i
17	Cc1cc(C(=O)N[C@H](c2ccccc2)[C@@]2(C)C[C@@H]2[C@@H](C)C(=O)Nc2ccc3ccccc3c2)n(C)n1	-2	-15	7	7	.	0	16	+
18	C/C(=N\NC(=O)c1ccccc1O)c1cccc(NC(=O)c2ccccc2)c1	-7	0	15	-6	-3	5	17	i
19	NC(c1csc(Nc2ccc(C(F)(F)F)cn2)n1)C1CCCCC1 (centres undefined)	-2	-2	.	-19	.	.	17	.
20	COc1cc(C(=O)O/N=C2/C=CC(=O)C(C)=C2C)cc(OC)c1OC	1	3	7	-11	.	7	.	.
21	COC(=O)c1sc(-c2cccs2)cc1N	1	-2	-2	-15	-5	3	-69	i
22	COCCc1ccc(OC2(C)CCN(Cc3cccc(OC)c3OC)C2)cc1 (centres undefined)	2	2	.	-12	.	.	25	.
23	COc1ccc(NC(=O)N2CCC(Cc3ccccc3)CC2)cc1	-6	0	5	.	35	1	-7	i
24	COc1ccc(Cl)cc1NC(=O)c1cc(-c2ccc(C)cc2O)n[nH]1	6	6	-8	-28	2	-1	-28	i
25	O=C(Nc1ccc(Cl)cc1)Nc1ccc(Br)cn1	-3	-1	-10	-5	-6	1	-44	i
26	Cc1cccc(C(=O)O[C@@H]2[C@H](Cc3ccccc3)NS(=O)(=O)[C@H]3C[C@@H]4C=C[C@]23O4)c1	0	0	.	1	-8	.	5	.
27	[O-]/[N+](=C/c1ccc(F)cc1)c1ccc(Cl)cc1	0	5	0	-40	-9	-4	.	i
28	Cc1cc(Cl)c2oc(C(=O)N3CCN(c4ccncc4)CC3)c(C)c2c1	1	-14	-8	-7	83*	-8	.	i
29	COC(=O)c1c(C(=O)OC)n(CCCN)c2ccc(C)cc12	6	-1	-3	-20	-10	-6	.	i
30	CC(C)(C)NC(=O)C(c1ccc(O)cc1)N(Cc1ccco1)C(=O)Cn1nnc(-c2cccs2)n1 (centres undefined)	-13	-1	-3	0	-12	-6	.	i
31	CNC(=O)c1c(NC(=O)C2=COCCO2)sc2c1CCN(C(=O)OC)C2	0	4	.	.	-10	.	-10	i
32	COc1cc2ccccc2cc1C(=O)OCC(=O)N(CC(C)C)c1c(N)n(Cc2ccccc2)c(=O)[nH]c1=O	-2	-12	.	-10	-14	.	23	i
33	CC1Cc2cc(/C(O)=C3\C(=O)C(=O)N(CCN4CCOCC4)C3c3ccccc3F)ccc2O1 (centres undefined)	5	4	0	-18	0	3	.	i
34	O=C(COC(=O)[C@@H]1CC(O)CN1S(=O)(=O)c1ccccc1[N+](=O)[O-])c1ccccc1 (some centres undefined)	-2	-1	-10	-6	-15	-5	-2	i
35	Cc1cc(C)c2cc(CN(Cc3ccc4c(c3)OCO4)Cc3nnnn3Cc3ccco3)c(=O)[nH]c2c1	-9	-1	8	.	-11	-7	.	i
36	CCCCC(c1nnnn1CC1CCCO1)N1CCN(c2cccc(C)c2C)CC1 (centres undefined)	-10	-10	11	-2	6	0	.	i
37	COc1ccc(CN2C(=O)[C@H]3Cc4c([nH]c5ccccc45)C(C)(C)N3C2=O)cc1	5	-9	.	7	2	.	-3	i
38	CC(=O)c1ccccc1OCCn1nc(C(=O)O)c2ccccc2c1=O	4	1	4	-22	-3	10	-8	.
39	CCN(CC(=O)Nc1c(F)cccc1F)C(=O)c1cc(C)oc1C	-4	4	.	.	-8	.	.	i
40	CCOC(=O)c1sc2nc(C)nc(NCc3ccccc3OC)c2c1C	-5	-22	3	-13	6	-3	6	i
41	COc1ccc(NC(=O)[C@H](CCS(C)(=O)=O)N2Cc3ccccc3C2=O)c(OC)c1	1	5	-3	-40	-9	6	-23	i
42	COc1ccc(C(=O)c2sc(Nc3ccccc3)nc2N)cc1OC	-11	-5	11	-18	38	0	-18	i
43	CCCn1c2ccccc2c2nc3ccccc3nc21	0	-2	1	-22	-1	-5	-260	i
44	O=C(COc1ccc(Br)cc1)N1CCc2ccccc2C1	3	3	-8	.	4	3	-3	i
45	N/C(=N\OC(=O)C(c1ccccc1)c1ccccc1)c1ccncc1	-7	-7	-5	.	-11	-19	5	i
46	CC(=O)CSc1nnc(Cc2ccc3c(c2)OCO3)o1	1	-9	-3	-17	-9	-3	-36	i
47	CC12CCC(=O)N1C(C(=O)Nc1ccc(F)c(F)c1F)CS2 (centres undefined)	8	1	.	.	-9	.	3	i
48	CCN(C(=O)COc1cc(=O)n(CC)c2ccccc12)c1cc(Cl)ccc1OC	2	0	7	-5	-9	15	1	i
49	Cc1ccc(N(Cc2ccccc2)C(=O)c2cccc(S(=O)(=O)N3CCOCC3)c2)cc1	-3	2	.	.	1	.	31	i
50	Cc1ccc(C)c(NS(=O)(=O)c2ccc3c(c2)NC(=O)CCS3)c1	-10	1	-7	-4	10	-7	-10	i
51	COc1ccc(COC(=O)c2nc3nc(C)cc(C)n3n2)cc1F	-9	1	-7	-25	-2	-2	-2	i
52	COc1ccccc1NC(=O)c1ccccc1C(=O)N(C)Cc1ccccc1	3	6	.	-11	-6	.	-3	.
53	COC(=O)C1(C)Nc2ccccc2C(=O)N1c1ccccc1OC (centres undefined)	7	0	-9	-11	-18	0	-29	i
54	O=C1c2ccccc2CN1C(CO)c1ccccc1 (centres undefined)	1	4	-2	-5	.	-1	16	i
55	Cc1cccc(C)c1NC(=S)NN(Cc1ccccc1)c1ccccc1	-5	-1	-7	-15	.	-4	.	i
56	CN(C(=O)COC(=O)c1ccccc1C(=O)c1ccccc1)c1ccccc1	3	-4	.	-7	-11	.	.	.
57	CCOC(=O)c1ccc(NC(=O)c2nc[nH]c2C(=O)NCCCCNC(=O)c2[nH]cnc2C(=O)Nc2ccc(C(=O)OCC)cc2)cc1	-9	4	.	-3	?	.	9	.
58	Cc1ccc2nsnc2c1S(=O)(=O)N1CCN(Cc2ccc3c(c2)OCO3)CC1	-6	-2	-2	-10	3	-1	.	i
59	COc1ccccc1Cn1nc(C(=O)O)c2ccccc2c1=O	-3	-1	-1	-1	-10	4	1	i
60	COC(=O)c1ccc(COc2ccc(/C=N/Nc3cccc(C(=O)O)c3)cc2)cc1	-3	0	54*	.	-16	75*	-7	i

(list continues)
No.	compound	MT1-MMP act inh	MT1-MMP act inh RFP	PABP polyA inh	Yeast UUG start	CSC inhib	eIF4H inh	HIV Env fusion	Rce1 inhib
61	CCN1CCN(c2nc3ccccc3n3cnnc23)CC1	-4	2	7	.	17	-2	-7	i
62	COc1cc(Cl)c(C)cc1NC(=O)CNC(=O)Cn1cnc2ccccc2c1=O	-1	-7	3	-16	-15	2	0	i
63	CCC(C)NC(=O)CCn1ccc2cc(S(=O)(=O)N3CCCC3)ccc21 (centres undefined)	6	7	1	6	13	1	10	i
64	CCOC(=O)c1c(NC(=O)c2ccncc2)sc(C)c1C	-12	-3	0	.	3	-3	14	i
65	Cc1nc2ccc([N+](=O)[O-])cc2c(=O)n1Cc1ccc(Br)cc1	0	-7	6	-4	24	0	2	i
66	O=C(c1ccccc1)N1CCN(c2ccc([N+](=O)[O-])c(NCC3CCCO3)c2)CC1 (centres undefined)	7	-1	-12	-2	-1	-16	3	i
67	O=[N+]([O-])c1ccccc1S(=O)(=O)c1ccccc1[N+](=O)[O-]	1	-2	2	.	-7	11	0	i
68	CCNC(=O)CC1SC(=Nc2ccc(C)c([N+](=O)[O-])c2)N(C)C1=O (centres undefined)	4	0	.	8	-2	.	8	i
69	Cc1ccc(-n2nc3c(c2NC(=O)c2ccc(Br)o2)CSC3)c(C)c1	11	1	-6	-7	-19	4	-20	i
70	O=C(COC(=O)/C=C/c1ccccc1)Nc1cc(C(F)(F)F)ccc1N1CCOCC1	0	-1	1	16	-11	34	-1	i
71	CCOC(=O)c1ccc(-n2cnc(-c3ccc([N+](=O)[O-])cc3)c2)cc1	5	-5	.	-13	.	.	15	.
72	CC12CC3CC(C)(C1)CC(C(=O)N1CCN(C(=O)C4CCCO4)CC1)(C3)C2 (centres undefined)	2	1	-14	2	-16	-12	11	i
73	Cc1cc(NC(=O)C2CCC2)n(-c2ccccn2)n1	2	0	3	-21	-18	6	7	.
74	O=C(CN(c1ccc2c(c1)OCCO2)S(=O)(=O)c1ccccc1)NCc1ccco1	0	5	-10	-11	-9	-6	.	i
75	Cc1ccc(-n2cnnn2)c(S(=O)(=O)N2CCOCC2)c1	-4	4	-4	-6	3	-7	8	i
76	O=C(Nc1nnc(SCC(=O)N2CCOCC2)s1)C1CC(=O)N(c2ccc(F)cc2)C1 (centres undefined)	-7	1	1	-16	-4	16	1	i
77	COC(=O)CSc1nnc(-c2ccccn2)n1Cc1ccco1	-2	4	12	-6	-1	5	.	i
